Screening data (PubChem)
Arbovirus anti – antivirals against arbovirus infection, primary screen, cell-based, full library, 10K replicate subset | arbovirus infection cell-based antiviral screen | inhibition, % at 10 µM | 200,000 compounds, 0.37% hits;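 active means inhibition from about 30%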;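 further: bluetongue infection of BSR cells; cell survival read as ATP light after 72 h; 0% = infected wells without compound and 100% = uninfected wells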
RecA splice inh – Mtb RecA intein splicing inhibitors, primary screen, biochemical, fluorescence, HTS; cell-free RecA intein splicing; inhibition, %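 (about 9 µM by stock and volumes)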; 290,000 compounds, 0.75% hits; in the data active means inhibition above about 30%; inconclusive means no clear call, values can overlap the other calls;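 further: 0% = vehicle wells and 100% = reference inhibitor control wells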
Target sequence (P9WHJ3 whole entry, looked up, canonical isoform): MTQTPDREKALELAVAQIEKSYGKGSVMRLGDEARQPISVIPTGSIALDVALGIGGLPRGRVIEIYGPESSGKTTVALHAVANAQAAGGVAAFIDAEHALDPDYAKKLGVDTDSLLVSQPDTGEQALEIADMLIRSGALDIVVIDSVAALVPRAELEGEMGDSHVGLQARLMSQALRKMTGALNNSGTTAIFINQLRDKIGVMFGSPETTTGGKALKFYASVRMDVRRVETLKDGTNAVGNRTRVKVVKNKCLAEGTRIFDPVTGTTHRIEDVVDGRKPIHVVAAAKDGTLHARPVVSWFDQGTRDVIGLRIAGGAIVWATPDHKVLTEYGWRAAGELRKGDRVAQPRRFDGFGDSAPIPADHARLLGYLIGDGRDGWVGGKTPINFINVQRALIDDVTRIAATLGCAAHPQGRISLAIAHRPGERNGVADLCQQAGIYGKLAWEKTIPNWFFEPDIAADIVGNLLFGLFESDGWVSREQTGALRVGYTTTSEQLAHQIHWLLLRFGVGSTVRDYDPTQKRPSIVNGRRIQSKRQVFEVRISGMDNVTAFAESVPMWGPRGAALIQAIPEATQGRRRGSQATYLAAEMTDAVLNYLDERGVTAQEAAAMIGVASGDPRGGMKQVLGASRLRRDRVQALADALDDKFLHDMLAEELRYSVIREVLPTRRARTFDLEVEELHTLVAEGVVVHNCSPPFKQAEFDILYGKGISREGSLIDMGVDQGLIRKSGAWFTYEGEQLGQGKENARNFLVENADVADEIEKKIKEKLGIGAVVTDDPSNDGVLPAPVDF
Mtb bLac sens – beta-lactam sensitization of Mtb H37Rv, H37Rv | M. tuberculosis H37Rv growth with meropenem, percent inhibition; hits of this screen are not shown here | 330,000 compounds, 0.27% hits | AID 434955, 2010 | inhibition, % at 25 µM;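 active means about 74% or more and at least 40 points above the plate without the antibiotic, then above 30% in a dose series; inconclusive means first-round hits that could not be retested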;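 further: growth measured after seven days incubation then overnight dye step; 0% = bacteria only wells and 100% = bacteria with antibiotic; twin plates without the antibiotic show which effects depend on it; some results filed as inactive read as strong as hits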
YopH PTP inh – YopH tyrosine phosphatase inhibitors, primary screen, biochemical, fluorescence Ex485/Em525 | 140,000 compounds, 0.16% hits | inhibition, %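 (about 10 µM by stock and volumes)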 | YopH tyrosine phosphatase [Yersinia enterocolitica];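 active means inhibition of 50% or more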;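 further: controls were vehicle for no effect and minimum signal wells for full effect; inactives centre near -20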
Mtb growth – M. tuberculosis H37Rv growth inhibitors, H37Rv strain (AID 1626). inhibition, % at 10 µM, or IC50 in µM where a hit was titrated. M. tuberculosis H37Rv growth inhibition; higher % means a stronger effect. 220,000 compounds, 0.95% hits;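 active means confirmed in a dose series; inconclusive means inhibition above 80% but not taken into the dose series; inactive means below 80% or under 30% at every dose of the series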;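 further: bacteria incubated seven days before Alamar blue readout; 0% = bacteria only wells and 100% = bacteria with antibiotic wells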
Arbovirus anti repeat – further read-out of Arbovirus anti, marked with its call; inhibition, %; measured here: 10K subset replicate screen; many hits read low in the repeat;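 first of two repeat runs on a subset; 0% = infected and 100% = uninfected wells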
* hit, by the source's call; ? = inconclusive; nt = no result given.

SMILES | Arbovirus anti | RecA splice inh | Mtb bLac sens | YopH PTP inh | Mtb growth | others
C/C(=N\NC(=O)Cc1cc(=O)[nH][nH]1)c1cccc([N+](=O)[O-])c1 | 2.0 | 87.9* | -4.7 | -22.4 | 0.8%
Cc1oncc1-c1csc(-c2ccccc2Cl)n1 | 0.0 | 12.3 | 4.7 | nt | 5.3%
C/C(=N\NC(=O)CN(c1ccccc1Br)S(C)(=O)=O)c1ccc2c(c1)OCCO2 | 3.6 | -0.2 | 0.1 | -20.3 | 2.9%
CC(CN1CCN(C)CC1)OC(=O)c1ccc(Cl)cc1 (stereo not drawn) | 1.3 | 2.8 | 2.5 | -15.4 | 3.6%
Cc1ccc(C(=O)CSC2=NC(N)=C(C#N)C3(CCCCC3)C2C(N)=O)cc1 (stereo not drawn) | -11.6 | 3.3 | -7.4 | -28.5 | -12.2% | Arbovirus anti repeat=-6.1
O=C1CC(C(F)(F)C(F)(F)C(F)(F)C(F)(F)F)=Nc2ccccc2N1 | 4.9 | -1.2 | 37.9 | -5.6 | 5.8%
N=C(N)N1CCN(Cc2ccccc2)CC1 | -1.3 | -1.8 | -9.0 | nt | 2.7%
O=c1[nH]c(=S)n(C2CCCCC2)c(O)c1C=NCCN1CCOCC1 | nt | -0.6 | 11.5 | nt | -6.6%
Cc1nc2c3cnn(-c4ccc(C)c(C)c4)c3ncn2n1 | 0.6 | 1.6 | 92.5 | -37.6 | 10.3%
CNC(=O)COC(=O)c1c2c(nc3ccccc13)CCC2 | nt | 5.7 | -16.4 | nt | 2.0%
CC(C)C(NC(=O)C(c1ccccc1)c1ccccc1)c1nc2ccccc2[nH]1 (stereo not drawn) | -3.9 | 3.1 | -6.7 | -11.8 | 3.2%
Cc1ccccc1CN(C)C(C)C(=O)Nc1ccccc1F (stereo not drawn) | -23.6 | 7.0 | 7.1 | nt | 4.1%
O=C(NCCCN1CCOCC1)c1ccccc1NS(=O)(=O)c1cc([N+](=O)[O-])ccc1Cl | 11.9 | 2.8 | 1.9 | -5.2 | 2.8%
Cc1ccc(S(=O)(=O)Nc2cc(C)cn(Cc3ccc(F)cc3)c2=O)cc1 | nt | 2.0 | 5.7 | nt | nt
COCC[N+]1(C)CCCCC1 | 4.7 | -0.8 | 6.8 | nt | -3.0%
Cc1[nH]cnc1C(=O)N/N=C/c1c(Cl)cccc1Cl | nt | -8.5 | 4.1 | nt | nt
O=C(/C=C/c1ccc(Cl)cc1)N(Cc1ccccc1)C1CCS(=O)(=O)C1 (stereo not drawn) | -18.6 | 1.5 | -7.9 | -12.2 | 2.2%
CN(C)c1ccc(N=C/C=C2\N(C)c3ccccc3C2(C)C)cc1 | -15.0 | -1.3 | 13.4 | -6.6 | nt
OCC1(CCOc2ccccc2)CCN(Cc2ccc3c(c2)OCCO3)CC1 | -21.2 | -2.0 | 6.5 | nt | -2.2%
CC1CN(Cc2cn(C)nc2-c2ccc(Oc3ccccc3)cc2)CCN1C (stereo not drawn) | -21.7 | 0.4 | 2.1 | nt | 5.0%
Cc1cccn2c(=O)c(C=O)c(N3CCCCCC3)nc12 | 3.0 | 0.3 | 1.6 | 10.6 | -9.6%
O=C(Nc1ccccc1)c1sccc1Oc1ccc([N+](=O)[O-])cc1F | 0.3 | 17.3 | -7.8 | nt | -1.6%
CCOC(=O)c1sc2nc(C)nc(NCc3ccccc3)c2c1C | nt | 3.3 | 12.4 | nt | nt
Cn1c(N)cc(-c2ccc(F)cc2)c(C#N)c1=O | -3.1 | -0.9 | -11.7 | nt | -5.0%
CCOC(=O)C1C(=O)C=C(N2CCOCC2)CC1c1cccc(OC)c1 (stereo not drawn) | -0.5 | -2.7 | -6.2 | -54.2 | 3.3%
CC[C@H]1CN(C)C[C@@]2(C(=O)OC)Cc3c([nH]c4ccccc34)C(=O)C[C@@H]12 | nt | -0.8 | -11.2 | nt | -6.6%
COc1ccc(C(=O)CNC2=NCCC2)cc1 | 2.1 | -1.6 | -3.9 | nt | 5.9%
COc1cccc(C(=O)NCCNC(=O)c2ccc(C)nc2)c1 | nt | 0.6 | -9.8 | nt | nt
Fc1cccc(Cl)c1Cn1nnc2c(NCc3ccccn3)ncnc21 | -7.1 | 2.1 | 6.3 | -21.2 | 1.9%
COc1ccc(CN2CCN(CC3CC3)CC2CCO)cc1C (stereo not drawn) | nt | -1.0 | -1.5 | nt | nt
CC(C)c1nnc(N2C(=O)C(O)=C(C(=O)c3cccs3)C2c2ccccc2)s1 (stereo not drawn) | 8.1 | -1.7 | nt | nt | 4.6%
CC1CCC(N(CCCN)Cc2ccco2)CC1C (stereo not drawn) | -10.2 | 4.9 | -1.2 | nt | -5.5%
Cc1cccc(N2C(S)=C(C#N)C(=O)NC2c2ccco2)c1 (stereo not drawn) | -10.2 | 2.3 | -4.0 | nt | -15.1%
COC(=O)[C@@]1(Cc2ccc(F)cc2)[C@H]2c3cc(C(=O)N4CCCC4)n(CCc4c[nH]c5ccc(OC)cc45)c3C[C@H]2CN1C(=O)c1ccccc1 | -8.6 | -3.9 | 76.6 | -22.6 | nt
O=C(Nc1ccc(-c2ccccc2)cc1)c1ccc2c(c1)S(=O)(=O)c1ccccc1C2=O | nt | -1.3 | -5.0 | nt | 2.6%
C(=C\c1ccccc1)/CSc1nnc(-c2cnccn2)n1Cc1ccco1 | 2.2 | 3.1 | 12.9 | -1.3 | 8.4%
CCCC(=O)Nc1sc(C(=O)OC)c(C)c1C(N)=O | -7.0 | 0.4 | 5.8 | -21.5 | 2.9%
CC1(C)CC2(C)OC(=N)C1(C#N)C2(C#N)C#N (stereo not drawn) | nt | 44.9* | 53.7 | nt | -2.4%
Cc1nc(SCC(=O)NCc2ccco2)nc(C)c1C | 2.5 | 2.7 | -3.5 | -34.8 | -4.1%
O=C(Nc1ccccc1N1CCN(C(=O)c2ccccc2)CC1)c1cccc(Cl)c1 | nt | 8.5 | 3.4 | nt | 10.4%

3 structures out of the list, sorted by count of non-hydrogen atoms, rising:
SMILES | Arbovirus anti | RecA splice inh | Mtb bLac sens | YopH PTP inh | Mtb growth | others
CCCC(=O)Nc1sc(C(=O)OC)c(C)c1C(N)=O | -7.0 | 0.4 | 5.8 | -21.5 | 2.9%
Cc1nc(SCC(=O)NCc2ccco2)nc(C)c1C | 2.5 | 2.7 | -3.5 | -34.8 | -4.1%
Fc1cccc(Cl)c1Cn1nnc2c(NCc3ccccn3)ncnc21 | -7.1 | 2.1 | 6.3 | -21.2 | 1.9%

(further entries)
SMILES | Arbovirus anti | RecA splice inh | Mtb bLac sens | YopH PTP inh | Mtb growth | others
CN(C)C(=O)c1nnsc1Sc1ccc(Cl)cc1 | -3.0 | 0.4 | 3.3 | nt | -1.7%
COc1ccc(N=Nc2c(C)[nH][nH]c2=O)cc1 | -8.8 | nt | 4.8 | nt | -6.1%
COc1cc(/C=C/C(=O)OCC(=O)N2CCN(C(=O)c3ccco3)CC2)ccc1O | -2.2 | -7.4 | -3.0 | 14.6 | 1.4%
O=C(Nc1nc2ccccc2[nH]1)c1ccc(Cl)c([N+](=O)[O-])c1 | 0.7 | -2.6 | 28.2 | nt | 13.7µM*
COc1ccccc1N1CCN(C(=O)C2CCC(Cn3c(=S)[nH]c4ccccc4c3=O)CC2)CC1 (stereo not drawn) | -5.2 | 0.3 | 13.2 | -46.7 | 8.9%
Cc1cccc(N2CCN(C(=O)c3c(-c4ccccc4Cl)noc3C)CC2)c1C | nt | 9.9 | 11.0 | nt | nt
C=CCNC(=S)N/N=C/c1ccc(C(C)(C)C)cc1 | 1.1 | 6.5 | nt | nt | 35.5%
COc1ccc(OC)c(S(=O)(=O)NCCc2csc(-c3cccnc3)n2)c1 | nt | -1.1 | -0.6 | nt | -4.8%
O=C(NCCc1c[nH]c2ccccc12)/C(=C\c1cccnc1)NC(=O)c1ccccc1Br | nt | 1.5 | -4.5 | nt | -13.3%
COC(=O)c1ccc(CSc2nc3c(c(=O)n2-c2ccc(C)cc2)SCC3)o1 | 1.0 | 11.4 | -0.6 | -18.2 | 12.6%
O=C(Nc1ccc(COc2ccccc2)cc1)Nc1cccc(C(=O)O)c1 | nt | -1.0 | 1.3 | nt | nt
Cn1c(-c2ccccn2)[n+](C)c2ccccc21 | 7.4 | 0.3 | 5.1 | nt | -15.9%
COc1ccc(C(=O)Nc2nc3c(s2)Cc2cc(OC)ccc2-3)cc1 | 15.8 | 10.3 | 69.4 | 7.0 | 12.0%
Cn1nnnc1SCc1c(F)cccc1F | 2.9 | 1.0 | -6.3 | -30.2 | -1.5%
CC(C)NC(=S)N/N=C/c1cccs1 | -8.1 | 1.1 | 96.3 | -6.5 | ?
Cc1cc(C)cc(OCC(=O)N/N=C/c2ccncc2)c1 | -11.8 | 0.0 | 98.0 | -62.7 | 48.1%
COc1cc(Cl)c(C)cc1NC(=O)c1cc(S(=O)(=O)N(C)C)ccc1N1CCCC1 | -0.7 | 1.2 | -1.4 | -11.0 | 15.0%
CCOc1ccccc1CNC(=O)c1ccc2c(c1)N(CC)CCS2 | nt | -8.4 | -5.0 | nt | nt
CC1CN(c2ccccc2)CCN1C(=O)c1cc(COc2c(F)cccc2F)on1 (stereo not drawn) | nt | 4.8 | 9.8 | nt | nt
CCCCCc1nnc(NC(=O)C2COc3ccccc3O2)s1 (stereo not drawn) | 45.8* | -1.1 | nt | nt | 44.0%

A section taken from the entries so far, as a working copy:
SMILES | Arbovirus anti | RecA splice inh | Mtb bLac sens | YopH PTP inh | Mtb growth | others
CC1CN(c2ccccc2)CCN1C(=O)c1cc(COc2c(F)cccc2F)on1 (stereo not drawn) | nt | 4.8 | 9.8 | nt | nt
CCCCCc1nnc(NC(=O)C2COc3ccccc3O2)s1 (stereo not drawn) | 45.8* | -1.1 | nt | nt | 44.0%

Other compounds:
SMILES | Arbovirus anti | RecA splice inh | Mtb bLac sens | YopH PTP inh | Mtb growth | others
CCS(=O)(=O)c1nc(S(=O)(=O)c2ccc(C)cc2)c(NCCCN2CCOCC2)s1 | nt | 3.8 | -8.2 | nt | nt
O=C(c1ccc(N2CCN(S(=O)(=O)c3ccccc3)CC2)c([N+](=O)[O-])c1)N1CCOCC1 | 12.3 | -0.7 | -9.1 | -25.2 | -6.1%
Oc1ccccc1-c1nc(NCc2cccnc2)c2ccccc2n1 | nt | -12.5 | 4.1 | nt | 5.3%
N/C(=N\OC(=O)c1cnn(-c2ccccc2)c1C(F)(F)F)c1ccc(C(F)(F)F)cc1 | nt | -0.2 | 66.2 | nt | -0.2%
O=C(NCCCN1CCOCC1)c1cccc(S(=O)(=O)N2CCc3ccccc3C2)c1 | 1.3 | -1.4 | -3.2 | nt | 3.8%
C=CCN(C(=O)c1csnn1)C(C(=O)NCc1ccc(F)cc1)c1ccccc1 (stereo not drawn) | nt | 0.4 | 5.2 | nt | nt
CCCC1C(=O)N(c2ccccc2)C1c1ccccc1 (stereo not drawn) | -5.0 | 2.2 | 9.1 | -36.7 | 1.0%
COc1ccccc1NC(=O)N1CCN(c2ncccn2)CC1 | 0.2 | 0.9 | -3.8 | -25.7 | 1.7%
Cc1nc(C)c(Cc2ccccc2Cl)c(=O)[nH]1 | -0.1 | -0.2 | -5.0 | -24.5 | -0.4%
COC(=O)c1cc(-c2ccc(Cl)cc2Cl)n[nH]1 | -8.1 | 3.6 | 5.0 | nt | 7.5%
CN(Cc1ccccn1)C(=O)C1CCC(=O)N(Cc2cccc(C(F)(F)F)c2)C1 (stereo not drawn) | nt | 0.9 | -4.9 | nt | nt
Cc1sc2ncn(CC(=O)OC(C)C(=O)NC(C)(C)C)c(=O)c2c1C (stereo not drawn) | 7.9 | 0.2 | -4.2 | -16.5 | -7.1%
COC(=O)c1sccc1NC(=O)C1CC(C)=C(C)CC1C(=O)O (stereo not drawn) | nt | 0.4 | -3.1 | nt | -8.1%
CC(O)(CS(=O)(=O)c1ccccc1)C(=O)Nc1ccc(C(F)(F)F)cc1 (stereo not drawn) | 3.6 | -2.4 | -7.4 | -36.5 | -0.2%
COc1ccc(OC)c2c1nc1n2CCS1 | -0.9 | -0.4 | -7.5 | -26.0 | -7.4%

Retrieved by compound from above, 4 records:
SMILES | Arbovirus anti | RecA splice inh | Mtb bLac sens | YopH PTP inh | Mtb growth | others
O=C(c1ccc(N2CCN(S(=O)(=O)c3ccccc3)CC2)c([N+](=O)[O-])c1)N1CCOCC1 | 12.3 | -0.7 | -9.1 | -25.2 | -6.1%
Cc1nc(C)c(Cc2ccccc2Cl)c(=O)[nH]1 | -0.1 | -0.2 | -5.0 | -24.5 | -0.4%
C=CCN(C(=O)c1csnn1)C(C(=O)NCc1ccc(F)cc1)c1ccccc1 (stereo not drawn) | nt | 0.4 | 5.2 | nt | nt
Cc1sc2ncn(CC(=O)OC(C)C(=O)NC(C)(C)C)c(=O)c2c1C (stereo not drawn) | 7.9 | 0.2 | -4.2 | -16.5 | -7.1%

Not all compounds are listed. The share of hits here may be higher or lower than overall.
